Bioassay records from PubChem.
CDC25B CDK2 inh: primary biochemical HTRF screen for blockers of M-phase inducer phosphatase 2 binding to CDK2/cyclin A. P30305+P24941. HTRF CDC25B-CDK2/CyclinA binding, anti-His/anti-Flag; hits give high values. z-score (concentration not given with the values). hit rate 0.72% among 94,000. AID 1259370, 2018;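 note: score is relative to mean and SD of negative controls; strong numbers were not always called active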
HIV TAR-Tat: TAR RNA-Tat peptide displacers, HIV-1, primary screen, biochemical, FRET, FAM/TAMRA-labeled Tat; HIV-1 TAR RNA, Tat peptide displacement FRET; hits give high values; hit rate 0.6% among 100,000; AID 1259389, 2018; z-score (concentration not given with the values);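 note: score is relative to mean and SD of negative controls; some compounds called inactive have numbers as strong as hits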
Numbers without * were called inactive; · = not tested or not shown; & = joins results of further samples.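 Rule for the calls: active = z-score from 3 up in half or more of its runs; inactive = the rest.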

Values run as follows: CDC25B CDK2 inh	HIV TAR-Tat
1. Cc1[nH]c2c(C)cccc2c1C(O)CN1CCCCC1 (configuration not stated)
 : 1.9	-0.31
2. CCC(CC)n1[nH]c(=O)c2c1NC(=O)CSC2c1ccc(Br)cc1 (configuration not stated)
 : -0.81	0.25
3. O=S1(=O)N(Cc2ccc(F)cc2)CCCN1Cc1cccc(F)c1
 : ·	0.41
4. CNc1ccccc1C(=O)O
 : ·	0.77
5. CCC1=CC2CN3CCc4c([nH]c5ccccc45)[C@@](C(=O)OC)(C2)C13
 : ·	0.97
6. O=[N+]([O-])c1cc(O)c(O)c([N+](=O)[O-])c1
 : -3.6	9.5*
7. CCOC(=O)N1CCN(C(=O)C2c3ccccc3C(=O)N3CCCCC23)CC1 (configuration not stated)
 : -0.86	0.49
8. CCCCC1CCC2(C)C3=C(CCC3)CCN2C1 (configuration not stated)
 : -1.2	-0.84
9. N#[N+]c1cnc2ccccc2c1[O-]
 : 0.92	·
10. CN1CC[C@@]2(C)c3cc(OC(=O)Nc4ccccc4)ccc3N(C)[C@@H]12
 : -2.4	·
11. Cn1cc(C(=O)c2ccccc2)c2ccccc21
 : -0.97	0.38
12. COc1cc2c(cc1OC)[C@@H]1C(=O)c3ccc(O)c(CC=C(C)C)c3O[C@@H]1CO2
 : ·	0.59
13. O=C(NC1CCCCC1)c1cc2ccccc2oc1=O
 : -0.18	·
14. COc1ccc2c(c1)C13CCCC[C@@H]1C(C2)N(C)CC3 (some centres not stated)
 : ·	1.2
15. CC(C)N(CCC(C(N)=O)(c1ccccc1)c1ccccn1)C(C)C (configuration not stated)
 : 0.73&-0.4	1.5
16. CNC(=O)O/N=C/C(C)(C)SC
 : ·	0.86
17. CC(C)(C)C(=O)NC1CCSC1=O (configuration not stated)
 : -1.3	·
18. CC(=O)OC1CN2CCC1CC2 (configuration not stated)
 : ·	1.8
19. CC1c2cccn2-c2ccccc2CN1C(=O)Nc1ccc(F)cc1 (configuration not stated)
 : ·	1.9
20. Cc1cc(C)nc(-n2nc(C)c3c2NC(=O)CSC3c2ccc(OC(C)C)cc2)n1 (configuration not stated)
 : 0.64	0.87
21. CCC1c2cccn2-c2ccccc2CN1C(=O)Nc1cccc(Cl)c1 (configuration not stated)
 : ·	1
22. CCC1c2cccn2-c2ccccc2CN1C(=O)Nc1cc(Cl)c(OC)cc1OC (configuration not stated)
 : ·	0.21
23. CC1(C)S[C@@H]2[C@H](N)C(=O)N2[C@H]1C(=O)O
 : -1	·
24. CC(=O)C1CCC2C3CCC4C[C@H](O)CCC4(C)C3C[C@H](O)C12C (some centres not stated)
 : ·	2.1
25. COc1ccc(Cc2nccc3cc(OC)c(OC)cc23)cc1OC
 : 13*	1.6&5.8
26. NCCc1c[nH]c2ccc(OCc3ccccc3)cc12
 : -2.3	·
27. CCOc1ccc(C2SCC(=O)Nc3c2c(C)nn3-c2nc(C)cc(C)n2)cc1OC (configuration not stated)
 : -1.6	1.6
28. COc1ccccc1N1CCNCC1
 : -1.3	1.3&-0.33
29. O=S(=O)(c1ccc(Br)cc1)N1CCN2CCC1CC2
 : 0.67	0.01
30. CCC1c2cccn2-c2ccccc2CN1C(=O)Nc1ccc(F)cc1F (configuration not stated)
 : ·	-0.03
31. Cc1nc2ncnn2c(C)c1CCC(=O)N1CCC2(CC1)OCCO2
 : -0.46	·
32. CN1C[C@H](CNC(=O)OCc2ccccc2)C[C@@H]2c3cccc4c3c(cn4C)C[C@H]21
 : 1.1	·
33. CCCOc1ccc(C2SCC(=O)Nc3c2c(=O)[nH]n3C2CCOC(C)(C)C2)cc1 (configuration not stated)
 : 0.03	2.4
34. COC(=O)c1ccc2c(c1)N=C(Cl)c1ccccc1S2
 : ·	2.5
35. COC(=O)N1CC2CC(C1)c1cccc(=O)n1C2 (configuration not stated)
 : ·	-0.15
36. Cc1cccc(C2SCC(=O)Nc3c2c(-c2ccccc2)nn3-c2nc(C)cc(C)n2)c1 (configuration not stated)
 : 0.86	1
37. CC(=O)C1=C(C)OC(N)=C(C(=O)OC(C)C)C12C(=O)Nc1ccccc12 (configuration not stated)
 : -1.4	·
38. CCC(=O)N1N=C2C3CCN(CC3)C2C1c1ccc(C)cc1 (configuration not stated)
 : -0.1	3.1
39. CC(C)n1[nH]c(=O)c2c1NC(=O)CSC2c1ccc(Cl)cc1 (configuration not stated)
 : -2.2	·
40. CN1CC=C(c2noc(CCC(=O)Nc3cccnc3Cl)n2)CC1
 : -1.4	·

Record cards, as listed above. Order of values: CDC25B CDK2 inh	HIV TAR-Tat
`CNC(=O)O/N=C/C(C)(C)SC` is listed as ·	0.86
`COc1ccc2c(c1)C13CCCC[C@@H]1C(C2)N(C)CC3` (some centres not stated) is listed as ·	1.2

(listing goes on)
Values run as follows: CDC25B CDK2 inh	HIV TAR-Tat
41. Cc1c2ccncc2c(C)c2c1[nH]c1ccccc12
 : 4.2*	-7.3
42. O=C(NC1CCCCC1)Oc1cc2oc(=O)sc2cc1Cl
 : -9.8	2
43. COc1ccccc1-c1cc2nc(C)cc(N3CCN(c4nc(C)cc(C)n4)CC3)n2n1
 : -0.62	0.32
44. COc1cccc([C@@]2(O)CCCC[C@@H]2CN(C)C)c1
 : ·	2
45. CC1CCN(CC(O)c2c[nH]c3ccccc23)CC1 (configuration not stated)
 : -1.5	-2.7
46. CN(C)CCN(C(=O)Cc1ccccc1)c1nc2cc3c(cc2s1)OCCO3
 : ·	2.8
47. Cc1cc(N2C(=O)C3CCCN3C2c2cccc(Cl)c2)no1 (configuration not stated)
 : -2	·
48. CC(C)[C@]12O[C@H]1[C@@H]1O[C@@]13[C@@]1(C)CCC4=C(COC4=O)[C@@H]1C[C@@H]1O[C@@]13C2=O
 : ·	-0.48
49. Cc1ccccc1CN1CCCN(Cc2ccccc2F)S1(=O)=O
 : ·	0.64
50. CC(N)C(O)c1ccc(O)c(O)c1 (configuration not stated)
 : ·	-0.19
51. CC1CCN(CC(=O)Nc2ccc(Cl)cc2C(=O)c2ccccc2Cl)CC1
 : -1.5	·
52. CC(C)[C@@H]1NC(=O)[C@H](C)OC(=O)[C@@H](C(C)C)NC(=O)[C@@H](C(C)C)OC(=O)[C@H](C(C)C)NC(=O)[C@H](C)OC(=O)[C@@H](C(C)C)NC(=O)[C@@H](C(C)C)OC(=O)[C@H](C(C)C)NC(=O)[C@H](C)OC(=O)[C@@H](C(C)C)NC(=O)[C@@H](C(C)C)OC1=O
 : ·	2.2
53. CC(C)(C)NCC(O)c1cc(Cl)c(N)c(Cl)c1 (configuration not stated)
 : ·	2.7
54. COc1ccc2c(c1OC)C(=O)O[C@@H]2[C@H]1c2cc3c(cc2CCN1C)OCO3
 : ·	-7.8
55. CC(C)(C)c1ccc(C(=O)Nc2ccc3c(C(F)(F)F)cc(=O)oc3c2)cc1
 : -2.7	·
56. C=C1CC[C@@H]2CCC3C(CCC4(C)C3CC[C@]4(C)O)C2(C)C1 (some centres not stated)
 : -1.5	·
57. CC1(C)C2CC(=O)[C@]3(C)C(CC[C@@]4(C)[C@H](c5ccoc5)OC(=O)[C@H]5O[C@]543)[C@@]2(C)C(=O)C[C@H]1O (some centres not stated)
 : ·	-0.86
58. CSc1cccc(NC(=O)N2Cc3ccccc3-n3cccc3C2C)c1 (configuration not stated)
 : ·	-0.11
59. CC12CCC3C(CC4OCC35CCC(O)C[C@]45Br)C1CCC2OC(=O)c1ccccc1 (some centres not stated)
 : -1.2	·
60. CC1=C2[C@H]3OC(=O)[C@@H](C)[C@@H]3CC[C@@]2(C)C=CC1=O
 : -0.94	9.7

Seven neighbouring compounds out of the list so far, quoted:
Values run as follows: CDC25B CDK2 inh	HIV TAR-Tat
41. Cc1c2ccncc2c(C)c2c1[nH]c1ccccc12
 : 4.2*	-7.3
42. O=C(NC1CCCCC1)Oc1cc2oc(=O)sc2cc1Cl
 : -9.8	2
43. COc1ccccc1-c1cc2nc(C)cc(N3CCN(c4nc(C)cc(C)n4)CC3)n2n1
 : -0.62	0.32
44. COc1cccc([C@@]2(O)CCCC[C@@H]2CN(C)C)c1
 : ·	2
45. CC1CCN(CC(O)c2c[nH]c3ccccc23)CC1 (configuration not stated)
 : -1.5	-2.7
46. CN(C)CCN(C(=O)Cc1ccccc1)c1nc2cc3c(cc2s1)OCCO3
 : ·	2.8
47. Cc1cc(N2C(=O)C3CCCN3C2c2cccc(Cl)c2)no1 (configuration not stated)
 : -2	·

Continued:
Values run as follows: CDC25B CDK2 inh	HIV TAR-Tat
61. Cc1ccccc1C1c2cccn2-c2ccccc2CN1C(=O)NC1CCCC1 (configuration not stated)
 : ·	0.66
62. O=c1cccc2n1CC1CC2CN(c2ccc3nnc(-c4ccccc4)n3n2)C1 (configuration not stated)
 : -1.3	1.6
63. Cc1noc2ncnc(N3CCN(C)CC3)c12
 : ·	0.51
64. O=C(N1CCCCC1)C(Cl)(Cl)Cl
 : -0.96	·
65. CCCC12CN3CC(CCC)(CN(C1)C3c1cccnc1)C2=O (configuration not stated)
 : -0.2	·
66. Cc1cc(OCC(=O)O)c2c3c(c(=O)oc2c1)CCCC3
 : -0.03	·
67. CC1(c2ccc(Cl)cc2Cl)OCC(Cn2cncn2)O1 (configuration not stated)
 : -0.45	·
68. CCOC(=O)C(O)(c1ccc(NC(=O)Oc2ccccc2)cc1)C(F)(F)F (configuration not stated)
 : -1	·
69. CC1=CCCC2C1(C)CCC(C)C2(C)CC/C(C)=C/C[n+]1cn(C)c2c(N)ncnc21 (configuration not stated)
 : ·	-0.74
70. CN1CC=C(c2noc(CCC(=O)NC3CCCC3)n2)CC1
 : -1.4	2.5
71. CCCn1c(C)c(C(=O)OCC)c2cc(O)ccc21
 : 0.73	0.73
72. CCCCCn1cc(C(=O)Cc2cccc(OC)c2)c2ccccc21
 : ·	1.9
73. Cc1ccnc(-n2c(-c3ccco3)nc3ccccc3c2=O)c1
 : 1.2	0.63
74. Cc1nc2cc(Cl)ccc2c(=O)n1-c1cccnc1
 : -2.3	·
75. CCc1ccc(-n2nc(C)c3c2NC(=O)CSC3c2cccs2)cc1 (configuration not stated)
 : -2.4	1.1
76. C#CCN[C@H](C)Cc1ccccc1
 : -1.4	·
77. C#CCOc1ccc(C2SCC(=O)Nc3c2c(C)nn3-c2nc(C)cc(C)n2)cc1 (configuration not stated)
 : -1.4	1.8
78. CCCCOC(=O)COc1cc(C)cc2oc(=O)c3c(c12)CCCC3
 : -0.79	·
79. NC(=Nc1ccccc1)Nc1ccccc1
 : -1.3	·
80. C[C@H]1CCC/C=C/C2C[C@H](O)C[C@H]2[C@H](O)/C=C/C(=O)O1 (some centres not stated)
 : ·	-0.09

The listing continues.
No.	mol	CDC25B CDK2 inh	HIV TAR-Tat
81	CCCCOP(O)(=S)OCCCC	-0.76	·
82	Cc1c(C)c(C)c(CCN)c(C)c1C	-2.9	·
83	CN(C(=O)Oc1ccnc2cc(Cl)ccc12)c1ccccc1	0.4	0.73
84	CC(=O)NBr	-0.83	·
85	O=C1C=C(Cl)C(=O)C=C1Cl	-1.1	·
86	CCCCN1CCCC1C(O)(c1ccccc1)c1ccccc1 (configuration not stated)	-2.4	-1.1
87	NC(Cc1cc(O)c(O)cc1O)C(=O)O (configuration not stated)	20*	·
88	Brc1ccc(C2CC(c3cccnc3)Nc3nnnn32)cc1 (configuration not stated)	-1.5	·
89	Brc1ccc(C(Cc2ccccc2)NC2CN3CCC2CC3)cc1 (configuration not stated)	1.8	0.82
90	CCCCCCCC(C)(C)c1ccc([C@H]2CCC[C@H](O)C2)c(O)c1	·	1.7
91	Cc1nnc(N2CCNCC2)c2nn(-c3ccccc3)c(C)c12	-2.5	0.94
92	CN1CCN(c2ncnc3n[nH]c(Br)c23)CC1	-1.2	0.6
93	CN(C)c1ccc(C2c3cccn3-c3ccccc3CN2C(=O)Nc2ccc(F)cc2)cc1 (configuration not stated)	·	0.74
94	Cc1ccc(-n2nc(C)c3c2NC(=O)CSC3c2ccccc2C)cc1 (configuration not stated)	1.2	0.79
95	O=C1NC(=S)NC(=O)C1=C/C=C/c1ccccc1	-3	·
96	Fc1cccc(F)c1CN1CCN(c2ccc(Cl)cc2)CC1	-1.4	·
97	Cc1nn(-c2nc3ccccc3s2)c2c1C(c1cc(F)cc(F)c1)SCC(=O)N2 (configuration not stated)	-1.8	-0.02
98	NCC(CC(=O)O)c1ccc(Cl)cc1 (configuration not stated)	-0.68	0.35
99	C[N+](C)(C)CC#CCOC(=O)Nc1cccc(Cl)c1	-2.7	·
100	O=c1cccc2n1CC1CC2CN(c2nc(Cl)nc(NCCN3CCOCC3)n2)C1 (configuration not stated)	0.37	0.49
101	COC(=O)N1CCN(C(=O)Cc2ccc(Cl)c(Cl)c2)C(CN2CCCC2)C1 (configuration not stated)	-0.56	-0.53
102	CCCCNc1nc(-c2ccccc2)c2c(c1C#N)CC(C)(C)OC2	0.26	1.1
103	O=C(O)c1[nH]c2ccc(Cl)cc2c1CC(=O)N1CCC2(CC1)OCCO2	0.23	·
104	CCOP(=O)(OCC)c1ccccc1O	-2	·
105	Cc1cc(C)nc(-n2nc(-c3ccccc3)c3c2NC(=O)CSC3c2ccccc2)n1 (configuration not stated)	0.09	-0.1
106	COc1ccc(OC)c(C2=NOC(C(=O)N3CCC4(CC3)OCCO4)C2)c1 (configuration not stated)	-0.72	·
107	CCCOc1ccc(C2SCC(=O)Nc3c2c(=O)[nH]n3C(C)C)cc1 (configuration not stated)	-1.4	3.2
108	CCOP(=S)(OCC)SCN1CC(=O)N(CSP(=S)(OCC)OCC)CC1=O	-1.2	·
109	CC(=O)O[C@@H]1CC2C(C)(C)C(=O)C=C[C@]2(C)C2CC[C@]3(C)C(=CC(=O)O[C@H]3c3ccoc3)[C@@]21C (some centres not stated)	·	1.3
110	CCOC(=O)N1CCC(NC(=O)CCc2nc(C3=CCN(C)CC3)no2)CC1	-3.3	2.7
111	CC12CN3CC(C)(CN(C1)C3c1cccs1)C2O (configuration not stated)	-1.1	·
112	COc1ccc(CN2CCN(Cc3ccc(Br)cc3)CC2)cc1	0.12	1.1

These rows are one share of the data; count on the stated rates, not on these rows.
